VDR inhibitor = vitamin D3 receptor (human) inhibition; hit rate 0.93% among 400,000; Potency, µM, without a hit: max response, negative = inhibition, usual class: inhibitors; AID 504847; VDR-SRC2-3 peptide fluorescence polarization, 2 h; P11473; active means well fitted inhibition curve with a large enough effect; inconclusive means small, poorly fitted or top-dose-only effect, or another doubt; inactive means no such curve, though single readings can be large or run the other way; further: series mostly up to about 120 µM
Target sequence (P11473 whole entry, looked up): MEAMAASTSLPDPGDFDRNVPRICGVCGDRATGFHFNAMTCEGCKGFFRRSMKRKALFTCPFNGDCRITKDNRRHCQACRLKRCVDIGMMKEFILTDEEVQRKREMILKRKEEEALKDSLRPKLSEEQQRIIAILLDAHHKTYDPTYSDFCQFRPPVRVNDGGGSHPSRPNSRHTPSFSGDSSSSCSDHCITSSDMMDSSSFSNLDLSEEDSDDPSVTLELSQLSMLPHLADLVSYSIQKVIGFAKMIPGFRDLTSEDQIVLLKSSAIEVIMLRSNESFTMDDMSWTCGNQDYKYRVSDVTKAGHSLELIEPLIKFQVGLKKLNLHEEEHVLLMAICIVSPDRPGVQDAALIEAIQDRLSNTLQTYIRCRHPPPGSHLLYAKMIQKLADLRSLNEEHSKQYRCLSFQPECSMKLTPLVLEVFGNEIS
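Compounds are added to VDR with labelled SRC2-3 coactivator peptide and held 2 h at room temperature. Inhibition of the VDR–peptide interaction is then read as a change in fluorescence polarization.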
The depositor's hits bear a star; ? = inconclusive; & = joins results of further samples; [ ] = another dose, or the depositor's remark. On the % scale 0 is the no-effect control and ±100 the full control effect; potency means the concentration at half of the fitted maximal effect. A portion of the library; the hit share may differ from the screen's.

Start of the listing, in advance:
SMILES | VDR inhibitor
CCN(CCCNC(=O)Cn1ncc2c([nH]c3ccc(C)cc32)c1=O)c1cccc(C)c1 | 36.7%&8.9%[activator]
Cc1cc(NCCOCCO)n2ncc(-c3ccc(Cl)cc3)c2n1 | -9.0%
Cc1ncoc1C(=O)N1CCCC(C(=O)c2cccc(C(F)(F)F)c2)C1 (centres undefined) | 2.5%
Cc1c(Cl)cccc1NS(=O)(=O)c1ccc(NS(=O)(=O)c2ccc3c(c2)OCCO3)cc1 | 2.6%
CCOC(=O)C(CCc1ccccc1)NC(C)C(=O)N1C(C(=O)O)CC2CCCC21 (centres undefined) | -13.3%

Results, previewed entries included:
SMILES | VDR inhibitor
CCN(CCCNC(=O)Cn1ncc2c([nH]c3ccc(C)cc32)c1=O)c1cccc(C)c1 | 36.7%&8.9%[activator]
Cc1cc(NCCOCCO)n2ncc(-c3ccc(Cl)cc3)c2n1 | -9.0%
Cc1ncoc1C(=O)N1CCCC(C(=O)c2cccc(C(F)(F)F)c2)C1 (centres undefined) | 2.5%
Cc1c(Cl)cccc1NS(=O)(=O)c1ccc(NS(=O)(=O)c2ccc3c(c2)OCCO3)cc1 | 2.6%
CCOC(=O)C(CCc1ccccc1)NC(C)C(=O)N1C(C(=O)O)CC2CCCC21 (centres undefined) | -13.3%
O=C(CN1CCCCC1)Nc1ccccc1NC(=O)CN1CCCCC1 | -5.0%
Cn1ccnc1SCC(=O)Nc1cccc(Br)c1 | 10.8%
COc1ccc(CSc2ccc(S(=O)(=O)N3CCCCC3)cn2)cc1F | -5.5%
CC(C)CN1CCCC2(CCN(S(=O)(=O)c3ccccc3)CC2)C1 | -4.1%
Cc1ccc(NS(=O)(=O)c2ccc(-c3ccc(=O)[nH]n3)o2)c(C)c1 | 3.4%
CCOc1cc(CO)cc(Br)c1OCC(N)=O | -6.4%
CC1(C)N=C(SCC(=O)Nc2ccccc2)C(c2ccc(Cl)cc2)=N1 | 18.2%
CC1=C(C(=O)Nc2ccccc2)C(c2cccnc2)n2nc(SCc3ccccc3F)nc2N1 (centres undefined) | -22.2%
CCOC(=O)N1CCC(N2CCCC(CO)(Cc3ccccc3C)C2)CC1 (centres undefined) | -19.0%
Cc1cccc(NC(=O)COC(=O)CCc2c[nH]c3ccccc23)c1C | 5.6%
Cc1[nH]nc2c1C(c1ccccn1)N(c1ccc(Br)cc1)C2=O (centres undefined) | 2.3%
COc1ccc(C(=O)N(C)Cc2ccccc2F)cc1S(=O)(=O)N1CCCC1 | -7.8%
O=C(CN1CCCCCCC1)Nc1cc(Cl)cc(Cl)c1 | 0.5%
COc1ccc(C(=O)N(Cc2ccco2)Cc2ccccc2F)cc1Cl | 5.2%
Cc1cccc(-c2noc(CN(C(=O)c3c(-c4ccccc4Cl)noc3C)C(C)C)n2)c1 | 10.0%
Cc1cc(C)c2c(CN3CCN(C/C=C/c4ccccc4)CC3)cc(=O)oc2c1 | 4.4%
c1cnc(N2CCN(c3ccc4ccccc4n3)CC2)nc1 | 22.7%
Cn1ncc2c(Nc3ccc(-c4ccccc4)cc3)ncnc21 | -4.9%
O=C(CN1C(=O)c2ccccc2C1=O)N1CCN(S(=O)(=O)c2ccccc2)CC1 | -7.9%
Cn1c(SCCc2ccc([N+](=O)[O-])cc2)nccc1=O | -3.4%
Cc1ccc(-c2nnc(NC(=O)c3ccc([N+](=O)[O-])o3)o2)c(C)c1 | ?
O=C(CSc1ncccn1)NCc1ccc(F)cc1 | 9.3%
Cc1[nH]c2ccccc2c1C(=O)C(=O)NCc1ccco1 | -21.5%
COc1cccc2sc(N3CCN(C(=O)c4ccc([N+](=O)[O-])o4)CC3)nc12 | -15.0%
O=C(Nc1nnc(-c2ccco2)o1)c1ccc([N+](=O)[O-])s1 | -19.3%
Cc1ccc(-n2nc3c(c2NC(=O)C2CC2)CS(=O)(=O)C3)cc1C | -13.5%
Cc1cccc(CS(=O)(=O)c2ncc(CO)n2C)c1 | -22.9%
O=c1[nH]c(N/N=C\c2ccc3c(c2)OCO3)nc2ccccc12 | -1.4%
Cc1c(C(=O)NC(C)c2ccc(-n3ccnc3)cc2)cccc1[N+](=O)[O-] (centres undefined) | -8.0%
COc1ccc(C(=O)NCCc2nnc(SCC(=O)Nc3ccc(Br)cc3)n2C)cc1 | -16.5%
CCc1ccccc1OCCCCCNCCO | -12.3%
Cc1c(C(=O)N2CCN(c3ccc(F)cc3)CC2)oc2c1C(=O)CCC2 | -7.2%
O=S(=O)(NCCc1cn2ccccc2n1)c1ccc2c(c1)CCCC2 | -15.3%
CC(=O)C(Cc1ccccc1)NC(=O)COC(=O)CCN1C(=O)C2CC=CCC2C1=O (centres undefined) | -12.7%
O=C(Nc1nn[nH]n1)c1cccc(Oc2ccccc2)c1 | -8.0%
CC(C)CN(C(=O)COC(=O)C12CC3CC(CC(C3)C1)C2)c1c(N)n(Cc2ccccc2)c(=O)[nH]c1=O | 17.0%
O=C(C[C@H]1C/C=C\C[C@@H](Cc2ccc(F)cc2)C(=O)OC[C@@H](Cc2c[nH]c3ccccc23)NC1=O)NCCO | -2.4%
CCOC(=O)C1CCN(C(=O)CCCCn2c(=O)[nH]c3ccccc3c2=O)CC1 | 2.8%
C=CCN(CC=C)CCCOc1ccc(C)cc1OC | 4.0%
CCOC(=O)c1sc(NC(=O)c2cc(-c3ccccc3C)nc3ccccc23)c(C#N)c1C | -10.2%
CCO[C@H]1OC(C(=O)O)=C[C@@H](c2coc3ccccc3c2=O)[C@@H]1CCCO | -5.7%
CCCCOc1ccc(C2(C)NC(=O)N(C)C2=O)cc1 (centres undefined) | -20.2%
CC(C)CC(=O)N1CCN(S(=O)(=O)c2ccc(F)cc2)CC1 | 8.2%
CCN(CC(=O)Nc1c(F)cccc1F)C(=O)c1cccnc1Sc1ccccc1 | -19.1%
COCCNC(=O)CN(C(=O)Cn1nnc2ccccc21)c1ccccc1 | 12.4%
The list continues:
SMILES | VDR inhibitor
CC(=O)NC(CC(C)C)C(=O)NC(CO)C(=O)NC(CCC(=O)O)C(=O)NC(C)C(=O)NC(CC(C)C)C(N)=O (centres undefined) | ?
COC(=O)[C@H](CC(C)C)NC(=O)Cn1cnc2c(SC)nc(N)nc21 | -6.6%
CN(C(=O)c1cccc(C#N)c1)c1nnc(C2CCCO2)s1 (centres undefined) | 3.3%
COc1ccc(-n2nc(C(C)=O)c(=O)[nH]c2=O)cc1 | 7.4%
COc1cc2cnc(-c3ccccc3)c(C(=O)c3ccc(OCc4ccccc4)cc3)c2cc1OC | 0.4%
CCOC(=O)c1ccc(NC(=O)c2cccnc2)cc1 | 11.6%
COc1ccccc1OCC(=O)N1CCN(c2ccccc2OC)CC1 | -3.8%
Cc1c(NC(=O)c2ccc(Cl)c(S(=O)(=O)N3CCCCC3)c2)c(=O)n(-c2ccccc2)n1C | -2.8%
O=c1c2ccccc2c(C=Nc2ccc(O)cc2)c(O)n1-c1nccs1 | -8.6%
COCc1cc(C)nc(SCC(=O)Oc2ccc(Cl)cc2)c1C#N | -10.7%
COc1cccc(-c2noc(CCCC(=O)NCc3ccco3)n2)c1 | 3.1%
CCn1c(C(=O)NCc2ccc(OC(C)C)cc2)cc2oc3ccccc3c21 | 5.6%
COc1cccc(NC(=O)CNC(=O)c2ccc(C)cc2)c1 | 29.2%
O=[N+]([O-])c1ccc(/C=N/N2CCN(Cc3ccccc3)CC2)cc1 | 19.3%
COc1ccc(N2CCN(C(CNC(=O)C3CCCCC3)c3ccco3)CC2)cc1 (centres undefined) | ?
Cc1ccc(CNC(=O)CCSCc2ccc(C)cc2)cc1 | -28.7%
CC(OC(=O)c1cccnc1Cl)C(=O)Nc1ccc2c(c1)OCO2 (centres undefined) | 0.1%
CC1=CC(C)(C)Nc2cc(C)c(C)cc21 | -7.8%
Cc1nn(C(C)(C)C)c(OC(=O)c2c(F)cccc2F)c1Sc1ccccc1 | -11.0%
CCn1cc(CNC(=O)c2cc(-c3ccc(C)c(C)c3)nc3ccccc23)c(C)n1 | -12.9%
COc1ccc(CCNC(=O)CS(=O)Cc2nc(-c3ccc(C)cc3)oc2C)c(OC)c1 (centres undefined) | -5.2%
Cc1cccc(OCC(=O)Nc2ccccc2N2CCCC2)c1C | 11.1%
S=c1[nH]nc(Cc2n[nH]c(=S)n2-c2ccccc2)n1-c1ccccc1 | -1.6%
CC(C)CNC(=O)Cn1nc(C(F)(F)F)c2c1CCCC2 | 8.3%
C[C@H](CO)N1C[C@H](C)[C@@H](CN(C)S(=O)(=O)c2ccc(F)cc2)Oc2c(NC(=O)CCC(F)(F)F)cccc2C1=O | -6.9%
CC1CCN(C(=O)c2cc3c(ccc4ccccc43)o2)CC1 | 19.4%
CN(C)C(=O)COC(=O)/C=C/c1cn(-c2ccccc2)nc1-c1cccs1 | 17.8%
Cn1c(=O)c2c(nc(NCc3ccco3)n2CCc2ccccc2)n(C)c1=O | -6.5%
CC(=O)c1cccc(NC(=O)CSc2ccc(-c3ccccn3)nn2)c1 | -7.0%
Cc1cc(C)cc(NC(=S)N(C)C)c1 | -11.0%
C=CCOc1ccc(Br)cc1/C=C1\NC(=S)N(C(C)=O)C1=O | -24.3%
COc1cc2c(cc1OC)CN(C(=O)c1cccc(S(=O)(=O)N(C)C)c1)CC2 | -2.6%
CCOc1ccccc1C(=O)NC1CCN(Cc2ccccc2)CC1 | -14.0%
CCc1ccc(C(=O)CC2(O)C(=O)N(Cc3ccc(C)cc3)c3ccccc32)cc1 (centres undefined) | ?
COc1ccccc1-c1cc(NC(=O)COc2ccccc2Cl)n(-c2ccccc2)n1 | 6.2%
COc1cc2c(c(OC)c1OC)-c1ccc(NC(=O)c3ccc(F)cc3)c(=O)cc1[C@@H](NC(C)=O)CC2 | 1.1%
COCc1c(C(=O)Nc2ccc3nc(N4CCOCC4)sc3c2)oc2ccccc12 | -0.9%
CCn1c(=O)n(CC)c2cc(S(=O)(=O)N3CCOCC3)ccc21 | ?
CCCCCCCCCCCn1nnnc1N | -2.0%
COc1ccccc1NC(=O)CSc1nnnn1C1CCCCC1 | -1.2%
CCc1ccc(NC(=O)CSc2nnc(-c3nonc3NC(C)=O)n2-c2ccccc2)cc1 | 0.6%
O=C(NCc1cccc(Br)c1)c1cc(-c2ccccc2)nn1CC1CC(c2cccnc2)=NO1 (centres undefined) | 0.0%
COCCCNc1nc2nonc2nc1N1CCN(C2CCCC2)CC1 | 16.6%
CN1CCN(c2nc3c(c(=O)[nH]c(=O)n3C)n2CCSc2nnnn2-c2ccccc2)CC1 | -9.4%
COc1ccccc1N1CCN(CC(=O)Nc2ccccc2C(=O)NCCc2ccccc2)CC1 | -4.7%
CCC(=O)N(CCC(c1ccco1)c1ccccc1OC)Cc1cccs1 (centres undefined) | ?
CCCCC(=O)Nc1nc(C)c(-c2csc(Nc3cc(Cl)ccc3OC)n2)s1 | -15.5%
Cc1nc2ccccc2n1CC(=O)N1CC(=O)Nc2ccccc21 | 25.8%
COc1ccc(NC(=O)c2cccc(NC(=O)C3C4CC5OC(=O)C3C5C4)c2)c(OC)c1 (centres undefined) | 0.9%
CCCCN(C(=O)c1ccc2c(c1)OCO2)c1c(N)n(CC(C)C)c(=O)[nH]c1=O | 16.2%
Continuation:
SMILES | VDR inhibitor
O=C(Nc1ccc(S(=O)(=O)N2CCCC2)cc1)N1c2ccccc2Sc2ccccc21 | 17.0%
Cc1noc(C)c1-c1cncnc1N(C)Cc1ccco1 | ?
Cc1nc(SCC(=O)Nc2ccc(F)cc2)c2oc3ccccc3c2n1 | 11.5%
Cc1cccc(C(=O)Nc2nnc(SCc3cc(=O)n4cccc(C)c4n3)s2)c1 | -2.6%
CCCC(=O)Nc1nn(CCC)c2nc3ccccc3cc12 | 12.1%
CCn1ccc2c(OCC(=O)NCc3ccc(C)cc3)cccc2c1=O | 15.7%
CCN(C(=O)Cn1ncc2c1-c1cc(C)ccc1OC2)c1cc(Cl)ccc1OC | -7.6%
C=CCOc1cccc(C2C(C(=O)c3ccc(C)o3)=C(O)C(=O)N2CCN(C)C)c1 (centres undefined) | -16.4%
O=C(O)c1ccc(N/N=C/c2ccc3c(c2)OCO3)cc1 | 6.8%
O=C(/C=C/c1ccc(S(=O)(=O)NCc2ccco2)cc1)N1CCN(c2ccccc2)CC1 | -0.9%

5 records drawn at random from those above, as already listed:
SMILES | VDR inhibitor
CCCC(=O)Nc1nn(CCC)c2nc3ccccc3cc12 | 12.1%
Cc1nc(SCC(=O)Nc2ccc(F)cc2)c2oc3ccccc3c2n1 | 11.5%
O=C(O)c1ccc(N/N=C/c2ccc3c(c2)OCO3)cc1 | 6.8%
O=C(Nc1ccc(S(=O)(=O)N2CCCC2)cc1)N1c2ccccc2Sc2ccccc21 | 17.0%
Cc1noc(C)c1-c1cncnc1N(C)Cc1ccco1 | ?

Other compounds
SMILES | VDR inhibitor
O=C(NC(NC(=S)Nc1ccccc1)C(Cl)(Cl)Cl)c1cccc(Cl)c1 (centres undefined) | 48.0%[activator]
O=C(OCn1ncc(Cl)c(Cl)c1=O)c1ccccc1Cl | ?
Cc1cccc(N2CCN(C(=O)Cc3c(C(=O)O)c(C)cn3C)CC2C)c1 (centres undefined) | 3.3%
CCOC(=O)c1sc(NC(=O)COC(=O)Cn2cnc3ccccc32)c(C(=O)OCC)c1C | 6.1%
Cc1cccc(N2CCN(C(=O)CCNS(=O)(=O)c3ccc4c(c3)CCC(=O)N4)CC2)c1C | 4.4%
CC(NC(=O)c1ccccc1F)c1ccccc1 (centres undefined) | 6.3%
CCCc1cc(N2CCOCC2)n2nc(C)c(-c3ccccc3)c2n1 | 20.3%
O=C(Cc1n[nH]c(=O)c2ccccc12)OCC(=O)c1ccccc1 | -3.6%
C=CCNC(=O)c1ccc(C(=O)c2ccccc2)cc1 | -1.9%
Cc1cccc(NC(=O)CSc2nc3c(oc4ccccc43)c(=O)n2Cc2ccco2)c1 | -12.9%
CC(C)(C)NC(=O)c1cccc2c1OC(C)(C)C2 | -7.5%
Cc1nc(C(C)NC(=O)CCc2nnc(Cc3c[nH]c4ccccc34)o2)cs1 (centres undefined) | -4.0%
CS(=O)(=O)N1CCC(C(=O)Nc2ccc(Br)cc2F)CC1 | -18.6%
COc1cc(C(=O)N/N=C/c2cccc(Oc3ccccc3)c2)ccc1O | 17.8%
